CSC inhib = cancer stem cell inhibition; cancer stem cell-like cells viability, luminescence; inhibition, % at 7.5 µM; actives 1.1% (n = 300,000);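 active = mean at 75% or more and at least half the replicates too; inconclusive = mean and replicates disagree; tested in HMLE shEcad cells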;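 note: 0% = median of negative and 100% = median of positive control wells; the first replicate is given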
HIV Env fusion = HIV envelope-mediated fusion inhibition; HeLa-JRFL Env/CEM21 cell fusion, luciferase; inhibition, % at 12.3 µM; actives 1.1% (n = 360,000); AID 651610;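 active = mean replicate inhibition score of at least 50 and every replicate individually at or above 50; inconclusive = only one of the two criteria met; inactive = mean below 50 and not all replicates reaching 50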;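 note: 0% = plate neutral controls and 100% = maraviroc near 300 nM; one replicate is shown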
UUG fidelity = yeast start codon fidelity modulation. S. cerevisiae UUG-firefly luciferase reporter, luminescence/redox ratio. activity score, % at 18.7 µM. actives 0.13% (n = 350,000);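 active = replicate mean at a twofold rise or more, about +100% in these data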;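 note: firefly luciferase made from a UUG start codon reports start codon fidelity; reporter light over untreated wells divided by growth signal over untreated wells; some hits fall short of that in this replicate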
Rce1 inh = yeast Ras-converting enzyme inhibition. Q03530. yeast membranes, quenched prenylated peptide cleavage fluorescence. calls only. actives 0.27% (n = 290,000);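 active = fall in fluorescence gain of 50% or more versus controls, with final raw signal at or below 3038400; inconclusive = same 50% fall but final raw signal above 3038400; inactive = fall in fluorescence gain under 50%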;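 note: plate controls were neutral control wells for no effect and wells lacking membranes for full effect; tested at 10 µM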
MT1-MMP act inh = blocks activation of human MT1-MMP; GFP/RFP ratio change, % at 20 µM; HT1080 RFP-PRO-GFP cells, GFP/RFP ratio fluorescence, overnight; percent of plate control window, DMSO zero; P50281; actives 0.061% (n = 360,000);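 active = GFP/RFP ratio change of at least 30% with cell ATP level not reduced by more than half and red fluorescence within 50% of control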; note: strong numbers were not always called active
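Assay system: HT1080 cells carrying an RFP-PRO-GFP reporter | Dosing: Single dose of 20 µM compound, 1% DMSO final | Incubation: Cells overnight before dosing, compound overnight, 37 °C, 5% CO2 | Evaluation: GFP/RFP fluorescence ratio | Control set: DMSO and RFP-L50D-GFP cell wells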
eIF4H FP inh = inhibitors of RNA binding by human eIF4H; Q15056; eIF4H fluorescence polarization binding assay; inhibition, % at 35 µM; actives 0.94% (n = 290,000); AID 2012;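 active = 50% or more with normal probe brightness, or confirmed in later tests; inconclusive = above 50% with abnormal brightness, or retests that disagree; inactive = below 50% or failed in later tests; about a fifth of its hits are not listed in these tables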;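 note: calls also rest on retests at 20 µM and on dose response follow-up; 0% = protein and probe with vehicle and 100% = probe without protein; strong numbers were not always called active; many hits fall short of the cut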
PABP FP inh = PABP-poly(A) binding inhibition | P11940 | PABP-poly(A) RNA binding, fluorescence polarization | inhibition, % at 35 µM | actives 1% (n = 290,000) | AID 2014;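 active = 50% or more with normal probe brightness, or confirmed in later tests; inconclusive = above 50% with abnormal brightness, or retests that disagree; inactive = below 50% or failed in later tests; about a fifth of its hits are not listed in these tables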;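 note: calls also rest on retests at 20 µM and on dose response follow-up; controls were probe without protein and protein plus probe with vehicle; some compounds called inactive have numbers as strong as hits; many hits fall short of the cut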
Target sequence (P11940 whole entry, looked up): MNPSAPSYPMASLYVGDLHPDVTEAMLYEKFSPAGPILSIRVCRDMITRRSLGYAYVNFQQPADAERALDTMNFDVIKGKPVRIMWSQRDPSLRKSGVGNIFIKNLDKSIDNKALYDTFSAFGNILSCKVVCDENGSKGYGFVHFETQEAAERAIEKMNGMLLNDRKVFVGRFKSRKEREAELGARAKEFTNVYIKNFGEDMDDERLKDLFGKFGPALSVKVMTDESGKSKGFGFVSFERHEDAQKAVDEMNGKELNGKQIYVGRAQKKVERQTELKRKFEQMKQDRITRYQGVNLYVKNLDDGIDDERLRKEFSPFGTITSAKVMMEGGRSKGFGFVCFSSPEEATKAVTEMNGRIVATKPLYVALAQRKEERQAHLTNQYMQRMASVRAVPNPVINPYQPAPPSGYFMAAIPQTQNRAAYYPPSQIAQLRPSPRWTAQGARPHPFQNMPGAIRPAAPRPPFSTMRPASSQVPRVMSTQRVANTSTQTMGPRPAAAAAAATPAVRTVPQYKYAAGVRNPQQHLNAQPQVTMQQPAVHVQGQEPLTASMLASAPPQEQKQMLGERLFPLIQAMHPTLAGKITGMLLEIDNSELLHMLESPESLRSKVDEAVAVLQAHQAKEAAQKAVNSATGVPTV
eIF4H FP inh retest = second read-out of eIF4H FP inh, no call of its own (marks repeat the call); inhibition, %; compound at 20 µM; confirmation average;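 mean of two retest wells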
PABP FP inh retest = second read-out of PABP FP inh, no call of its own (marks repeat the call); inhibition, %; compound at 20 µM; confirmation repeats;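 mean of two retest wells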
MT1-MMP act inh RFP = further read-out of MT1-MMP act inh, marked with its call; RFP signal change, %; measured here: RFP expression control read;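 0 = vehicle wells; hits needed this value within 50% of zero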
* hit, by the source's call; i = inactive; ? = inconclusive; nt = no result given; + = active, no number; & = joins results of further samples. These rows are one share of the data (hit frequency here may not be typical).

The first 3 entries, to show the layout:
SMILES | CSC inhib | HIV Env fusion | UUG fidelity | Rce1 inh | MT1-MMP act inh | MT1-MMP act inh RFP | eIF4H FP inh | PABP FP inh | others
CCOC(=O)Cc1csc(NC(=O)c2c(O)c3ccccc3n(CCC(C)C)c2=O)n1 | 17 | 13 | nt | i | 2 | 4 | 5 | 7
O=C(CCCC1=NS(=O)(=O)c2ccccc2N1)N1CCC2(CC1)OCCO2 | -8 | -115 | nt | i | 3 | 3 | -6 | -3
Cc1ccc(C(=O)NC(O)C(Cl)(Cl)Cl)cc1 (configuration not stated) | -16 | -7 | nt | i | 1 | -1 | 2 | 6

This part in full, from the start:
SMILES | CSC inhib | HIV Env fusion | UUG fidelity | Rce1 inh | MT1-MMP act inh | MT1-MMP act inh RFP | eIF4H FP inh | PABP FP inh | others
CCOC(=O)Cc1csc(NC(=O)c2c(O)c3ccccc3n(CCC(C)C)c2=O)n1 | 17 | 13 | nt | i | 2 | 4 | 5 | 7
O=C(CCCC1=NS(=O)(=O)c2ccccc2N1)N1CCC2(CC1)OCCO2 | -8 | -115 | nt | i | 3 | 3 | -6 | -3
Cc1ccc(C(=O)NC(O)C(Cl)(Cl)Cl)cc1 (configuration not stated) | -16 | -7 | nt | i | 1 | -1 | 2 | 6
CC(C)Sc1nnc([C@@H](N)Cc2c[nH]c3ccccc23)o1 | 7 | -98 | -15 | i | -7 | -1 | 6 | 5
COc1ccc(-n2c(/C=C/c3ccc(O)c(O)c3)nc3ccccc3c2=O)cc1 | 11 | -4 | 5 | i | -75 | -3 | 7 | 5
O=c1[nH]c(=S)[nH]c(O)c1N=Nc1cc2c(cc1[N+](=O)[O-])OCO2 | -1 | 5 | 2 | i | 6 | 6 | 15 | 12
C=CCn1c(O)c(C(C)=NCCCn2ccnc2)c(=O)[nH]c1=O | -26 | 8 | nt | i | 2 | -2 | -8 | -8
CCOC(=O)C1=C(N)OC2=C(C(=O)CC(C)(C)C2)C12C(=O)Nc1ccccc12 (configuration not stated) | -13 | 6 | -4 | i | -1 | 10 | -5 | -1
CN1CC(C(=O)c2ccccc2)C(C(=O)c2ccccc2)C1 (configuration not stated) | -6 | nt | -29 | i | -4 | -3 | 6 | 1
CC(C)CCNC(=O)c1cc(C(=O)c2cc(F)ccc2O)cn(CCC(C)C)c1=O | -6 | 4 | nt | i | 4 | 0 | 7 | -3
COC(=O)C1=CO[C@@H](C)[C@@H]2CN(CCc3c[nH]c4ccccc34)CC[C@H]12 | 22 | nt | -5 | i | -2 | 3 | nt | nt
COC(=O)C1=C(c2cccc(C#N)c2)C[C@@H]2CC[C@H]1N2C(=O)NCCOc1ccccc1Cl | -14 | -3 | -3 | nt | 1 | 0 | nt | nt
CCOc1cc2c(cc1OCC)-n1cccc1C(c1cccc(F)c1F)NC2 (configuration not stated) | 0 | -16 | -25 | i | 5 | 2 | -3 | 1
COc1ccc(-c2cc(=Nc3cccc(C(=O)O)c3)c3cc(C)ccc3o2)cc1 | 1 | -94 | nt | i | 4 | -2 | -4 | -3
COc1nc2ccccc2nc1N1CCN(C)CC1 | -4 | -5 | -14 | i | 0 | -3 | 8 | 6
CC(C)OP(=O)(Oc1ccc(C(O)C(Cl)(Cl)Cl)cc1)OC(C)C (configuration not stated) | 1 | 19 | -10 | i | 10 | -9 | -3 | 8
O=P(CCl)(Nc1ccccc1)C(Cl)(Cl)Cl (configuration not stated) | -10 | -3 | nt | i | 6 | 7 | -12 | 11
Cc1cc(/C=C2\C(=O)NC(=O)N(C)C2=O)c(C)n1-c1ccc2c(c1)OCO2 | 3 | -61 | -8 | i | -6 | 7 | 73 | 60 | eIF4H FP inh retest=3;PABP FP inh retest=12
C[C@@H]1O[C@@H](O[C@H]2C[C@@H](O)[C@]3(CO)[C@@H]4C(CC[C@]3(O)C2)[C@@]2(O)CC[C@H](C3COC(=O)C3)[C@@]2(C)C[C@H]4O)[C@H](O)[C@H](O)[C@H]1O (some centres not stated) | 83* | 5 | -15 | nt | -38 | -28 | nt | nt
O=C(c1cccc(C(F)(F)F)c1)N1C[C@H]2C[C@@H](C1)c1cccc(=O)n1C2 | -9 | nt | -1 | i | 7 | 7 | 0 | -6
CNC(=O)N(C)c1ccc(C(O)(C(=O)OC)C(F)(F)F)cc1 (configuration not stated) | 0 | -9 | -18 | i | -4 | -4 | -3 | -11
O=c1c2ccccc2nc(-c2ccoc2)n1-c1ccccc1Cl | 21 | 13 | -2 | i | 2 | -1 | -9 | 1
Cc1cc(-c2ccccc2)cc(C)[n+]1Cc1ccccc1 | -15 | 26 | -18 | i | 0 | -21 | nt | nt
CC(=NCc1ccc2c(c1)OCO2)c1c(O)n(-c2ccc(C)cc2)c(=O)[nH]c1=O | -9 | -1 | nt | i | 2 | -2 | -4 | -9
Oc1ccc2c3c1O[C@H]1c4[nH]c5ccccc5c4C[C@@]4(O)C(C2)N(CC2CC2)CC[C@]314 | -1 | nt | nt | i | nt | nt | 2 | 9
Cn1cccc1CNCCc1ccccc1F | -4 | nt | -18 | i | 3 | 2 | 15 | 11
Cc1cc(N2CCOCC2)nc2ccc(NC(=O)CCC(=O)N3CCC4(CC3)OCCO4)cc12 | -2 | -42 | -11 | ? | 0 | -2 | 0 | -7
CC(=O)[C@H]1CC[C@H]2[C@@H]3CC[C@H]4C[C@H](O)CC[C@]4(C)[C@H]3C(=O)C[C@]12C | -12 | nt | 1&-8 | + | 1 | 5 | 3 | -7
COC(=O)C1=C(c2ccc(Cl)c(C(F)(F)F)c2)C[C@@H]2CC[C@H]1N2C(=O)NCCO | -6 | -8 | -7 | nt | 4 | 3 | nt | nt
CC(=Nc1ccc2c(c1)CCC2)c1c(O)n(C)c(=O)n(C)c1=O | -9 | nt | -8 | i | -1 | -5 | -6 | 4
Cn1c(O)c(C=NCCc2c[nH]c3ccccc23)c(=O)n(C)c1=O | -1 | -49 | -14 | i | 2 | 2 | 0 | 4
COc1ccccc1-n1c(O)c(C=NC2CC2)c(=O)[nH]c1=O | 7 | -40 | -9 | i | -4 | 5 | 17 | 40
CCCC(=O)c1c(O)[nH]c(=O)[nH]c1=O | -4 | nt | -6 | i | 0 | 2 | -10 | 18
COC(=O)C1=C(c2ccc3ccccc3c2)C[C@@H]2CC[C@H]1N2C | 8 | 9 | -11 | nt | -1 | 2 | nt | nt
CCCN1CC(C)C(OC(C)=O)(c2ccccc2)CC1C (configuration not stated) | 9 | nt | -7 | i | -2 | -1 | 2 | -5
CCN1C(=O)/C(=C/c2ccc(N(CC)CC)cc2OC)C(=O)NC1=S | nt | -80 | nt | i | 0 | 25 | ? | ?
CC(NCC#Cc1ccccc1)C(O)c1ccccc1 (configuration not stated) | -4 | 5 | nt | i | 1 | 4 | -12 | 1
CCC(=NCCCn1ccnc1)c1c(O)n(-c2ccc(OC)cc2)c(=O)[nH]c1=O | 3 | -16 | nt | i | -1 | -1 | -2 | -6
COC(=O)C1=C(c2ccc(OC)c(OC)c2)C[C@@H]2CC[C@H]1N2C(=O)N1CCCCC1 | -6 | 3 | -1 | nt | -3 | -6 | nt | nt
COC(=O)C1=C(c2c(C)noc2C)C[C@@H]2CC[C@H]1N2C(=O)N1CCCCC1 | 7 | 3 | -10 | nt | 4 | 1 | nt | nt

Ordered by number of heavy atoms (ascending): some entries from above.
SMILES | CSC inhib | HIV Env fusion | UUG fidelity | Rce1 inh | MT1-MMP act inh | MT1-MMP act inh RFP | eIF4H FP inh | PABP FP inh | others
C=CCn1c(O)c(C(C)=NCCCn2ccnc2)c(=O)[nH]c1=O | -26 | 8 | nt | i | 2 | -2 | -8 | -8
O=C(c1cccc(C(F)(F)F)c1)N1C[C@H]2C[C@@H](C1)c1cccc(=O)n1C2 | -9 | nt | -1 | i | 7 | 7 | 0 | -6
COc1ccc(-c2cc(=Nc3cccc(C(=O)O)c3)c3cc(C)ccc3o2)cc1 | 1 | -94 | nt | i | 4 | -2 | -4 | -3
Cc1cc(N2CCOCC2)nc2ccc(NC(=O)CCC(=O)N3CCC4(CC3)OCCO4)cc12 | -2 | -42 | -11 | ? | 0 | -2 | 0 | -7

Following part
SMILES | CSC inhib | HIV Env fusion | UUG fidelity | Rce1 inh | MT1-MMP act inh | MT1-MMP act inh RFP | eIF4H FP inh | PABP FP inh | others
O=P(Oc1ccccc1)(Oc1ccccc1)N1CCN(c2ccc(F)cc2)CC1 | 2 | 23 | nt | nt | -1 | -7 | 2 | 6
Cc1ccc(Cn2nnnc2CN2CCC(n3nnc4cc(C)ccc43)CC2)cc1 | 2 | -32 | nt | i | nt | nt | 3 | -2
CCN1C(=O)CC(=O)N(CC)C1=S | nt | 4 | -7 | nt | 3 | 2 | nt | nt
CCOC(=O)N(C)c1ccc(C(O)(C(=O)OC)C(F)(F)F)cc1 (configuration not stated) | -4 | nt | -16 | i | 4 | 2 | 4 | 1
COC(=O)[C@@]1(C#N)[C@@H]2C=CC(C(C)=O)=CN2[C@@H](C(N)=O)[C@@H]1c1ccc(F)cc1 | -9 | 2 | nt | i | -14 | 5 | ? | ?
CCCCCCN=Cc1c(O)n(C)c(=O)n(C)c1=O | nt | i | -1 | i | -3 | 0 | -7 | -5
CCCN1CCC[C@H](c2cccc(O)c2)C1 | 2 | 20 | 7 | nt | 3 | 5 | nt | nt
O=C(O)c1nonc1-c1nonc1C(=O)O | 0 | nt | -16 | nt | 6 | -1 | 3 | 0
CCCS(=O)(=O)N1CCC(C(=O)N2CCC3(CC2)OCCO3)CC1 | 0 | nt | -5 | i | 4 | 7 | 5 | -2
Cc1ccc(N)cc1N | -3 | nt | 0 | nt | -2 | 5 | nt | nt
Cc1cccc(-c2nc3ccc(C(=O)N4CCC5(CC4)OCCO5)cc3nc2-c2cccc(C)c2)c1 | 15 | 5 | -7 | i | -2 | -4 | 0 | -6
CCOC(=O)c1c(C)n(Cc2ccc(F)cc2)c2ccc(O)cc12 | -6 | 10 | -6 | i | 6 | -7 | -4 | 8
COc1ccc(CNC(C)Cc2cccs2)cc1 (configuration not stated) | -18 | 0 | nt | i | 5 | 1 | 8 | 9
COc1ccccc1-n1c(O)c(/C=N/NC(=S)Nc2ccccc2)c(=O)[nH]c1=S | -20 | -6 | -26 | i | 3 | 16 | 0 | 0
CC#CP(=O)(OCC)C(O)(c1ccccc1)C(F)(F)F (configuration not stated) | -17 | nt | -4 | i | 3 | 1 | -4 | -1
CC(O)(CS(=O)(=O)c1ccccc1)C(=O)Nc1ccc(C(F)(F)F)cc1 (configuration not stated) | nt | -73 | -11 | i | 5 | -6 | -5 | 4
O=C1NCN(c2ccccc2)C12CCN(C(c1ccnc3ccccc13)c1nnnn1Cc1ccccc1)CC2 (configuration not stated) | nt | -91 | -13 | nt | 3 | -6 | nt | nt
CC[C@H]1CN(C)C[C@@]2(C(=O)OC)Cc3c([nH]c4ccccc34)C(=O)C[C@@H]12 | -5 | nt | -16 | i | 4 | 11 | nt | nt
O=c1c2ccccc2nc(-c2ccccc2Cl)n1-c1cccc(O)c1 | 46 | 0 | -9 | i | -8 | -3 | 8 | 11
COc1ccc(-n2c(CN3CCOCC3)nc3ccccc3c2=O)c(OC)c1 | -16 | -54 | -27 | i | 0 | -1 | 2 | -10
